Screening results as filed in PubChem.
Cruzain inh Det – qHTS Assay for Promiscuous and Specific Inhibitors of Cruzain (with detergent); hit rate 0.43% among 200,000; Cruzipain (Trypanosoma cruzi), P25779; Potency, µM, without a hit: max response, negative = inhibition, most hits filed as inhibitors; purified cruzain, Z-FR-AMC fluorescence, 0.01% Triton; active = well fitted curve in the direction sought with a large enough effect; inconclusive = small, poorly fitted or top-dose-only effect, or another doubt; inactive = no such curve, though single readings can be large; an effect the other way counts as inactive or inconclusive;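 note: plate controls were neutral wells for no effect and buffer without enzyme for full effect; nearly all actives have a fitted effect of over 40% in size; top concentration of the series not given in the record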
Target sequence (P25779 123-467 limits assumed): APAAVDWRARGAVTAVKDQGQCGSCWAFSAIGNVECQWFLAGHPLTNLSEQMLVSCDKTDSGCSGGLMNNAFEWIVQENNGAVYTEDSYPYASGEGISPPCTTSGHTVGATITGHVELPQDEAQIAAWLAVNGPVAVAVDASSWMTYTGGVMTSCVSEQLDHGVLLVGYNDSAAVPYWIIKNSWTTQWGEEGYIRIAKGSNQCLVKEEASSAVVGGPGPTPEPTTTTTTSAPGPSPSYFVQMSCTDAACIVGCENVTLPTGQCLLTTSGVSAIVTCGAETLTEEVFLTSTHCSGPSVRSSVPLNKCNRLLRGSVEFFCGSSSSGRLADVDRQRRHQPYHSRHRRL
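Z-FR-AMC hydrolysis (2 uM substrate) by cruzain (1.5 nM) monitored kinetically at ex 360/em 450 nm after 15 min room-temperature compound exposure; 0.01% Triton X-100, pH 5.5, 5 mM DTT.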
Lassa entry inh – qHTS for Inhibitors of binding or entry into cells for Lassa Virus | Lassa virus pseudotype entry inhibition, cell reporter; control for the full effect not named in the record | Potency, µM (series often up to 37.9 µM), inactives show at the top dose activity change, negative = inhibition, actives largely listed as inhibitors | hit rate 1.2% among 300,000 | AID 540256, 2011; active means well fitted inhibition curve with a large enough effect; inconclusive means small, poorly fitted or top-dose-only effect, or effect the other way; inactive means flat fitted curve, though single readings scatter; tested in HEK293 cells; note: % is set by controls: 0 for no effect and ±100 for the full control effect; nearly all actives have a fitted effect of over 50% in size; luciferase read-out
2A StopGo – High Throughput Screening for Foot and Mouth Disease Virus Antivirals. human cells with a luciferase reporter of 2A StopGo recoding; control for the full effect not named in the record. AID 1159524, 2015. hit rate 1.2% among 410,000. Potency, µM (series often up to 57.9 µM), without a hit: at the highest dose signal change, negative = less light; active = well fitted falling curve with a large enough effect; inconclusive = small, poorly fitted or top-dose-only effect; inactive = no such curve, though single readings can be large or run the other way; tested in HEK293T cells; note: % is set by controls: 0 for no effect and ±100 for the full control effect; nearly all actives have a fitted effect of over 45% in size; luciferase light after 4 h
RE007 growth inh – qHTS Assay for Inhibitors of the HIV-1 protein Vpr; Potency, µM (titrated, usually from 92.2 µM), for the others: top-dose activity change, negative = less growth; AID 651644, 2012; hit rate 0.21% among 360,000; S. pombe RE007 Vpr strain, BacTiter-Glo ATP luminescence, 24 h; control for the full effect not named in the record; active = well fitted falling curve with a large enough effect; inconclusive = small, poorly fitted or top-dose-only effect; inactive = no such curve, though single readings can be large or run the other way;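 note: % is set by controls: 0 for no effect and ±100 for the full control effect; nearly all actives have a fitted effect of over 50% in size; the assay follows cell death caused by Vpr and the record does not say whether a fall means rescue or toxicity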
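Fission yeast RE007 carrying one integrated HIV-1 vpr copy, seeded at OD 0.01 in PMG+AL medium with 23 nL pinned compound. Grown 24 h at 30 degrees; viability read by BacTiter-Glo luminescence after 5 min.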
Cruzain inh noDet – qHTS Assay for Promiscuous and Specific Inhibitors of Cruzain (without detergent); Cruzipain (Trypanosoma cruzi), P25779; purified cruzain, Z-FR-AMC fluorescence, no detergent; Potency, µM, for inactives: max response, negative = inhibition, usual class: inhibitors; hit rate 2.3% among 200,000; active = well fitted curve in the direction sought with a large enough effect; inconclusive = small, poorly fitted or top-dose-only effect, or another doubt; inactive = no such curve, though single readings can be large; an effect the other way counts as inactive or inconclusive;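 note: plate controls were enzyme without inhibitor for no effect and buffer without enzyme for full effect; nearly all actives have a fitted effect of over 40% in size; top concentration of the series not given in the record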
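Purified cruzain at 1.5 nM, pre-incubated 15 min with compound at room temperature in 100 mM sodium acetate pH 5.5, 5 mM DTT, 0.00005% Triton X-100. Reaction started with 2 uM Z-FR-AMC; AMC fluorescence increase over 60 s gives rate.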
NS1 function inh – qHTS Assay for Inhibitors of Influenza NS1 Protein Function; S. cerevisiae slowed by influenza A NS1, growth recovery by OD600; Potency, µM (top dose mostly 46.1 µM), for the others: at the highest dose activity, positive = more growth; hit rate 0.4% among 270,000; AID 2326, 2010; note: actives are rising curves; nearly all actives have a fitted effect of over 50% in size
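In this qHTS, NS1 from influenza A is expressed in budding yeast, where it slows growth. Cells are switched from glucose to 2% galactose medium (pH 6.0, -URA), treated with compound, and growth recovery is read at OD600.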
MARV entry inh – qHTS for inhibitors of binding or entry into cells for Marburg Virus; Marburg virus pseudotyped entry inhibition, cell reporter; control for the full effect not named in the record; about a third of the inactives were read at about 46 µM; Potency, µM (series often up to 37.8 µM), inactives show at the top dose activity change, negative = inhibition, most hits filed as inhibitors; hit rate 1.8% among 300,000; active = well fitted inhibition curve with a large enough effect; inconclusive = small, poorly fitted or top-dose-only effect, or effect the other way; inactive = flat fitted curve, though single readings scatter; tested in HEK293 cells; about a fifth of its hits are not listed in these tables; note: % is set by controls: 0 for no effect and ±100 for the full control effect; luciferase read-out
SARS PLP yeast – qHTS of Yeast-based Assay for SARS-CoV PLP; S. cerevisiae expressing SARS-CoV PLpro, growth rescue; control for the full effect not named in the record; Potency, µM (titrated, usually from 32.9 µM), without a hit: at the top dose activity, positive = growth rescue; hit rate 0.19% among 330,000; AID 485353, 2010; note: 0% is about no effect; nearly all actives have a fitted effect of over 55% in size; growth read by luminescence after 48 h
Active calls of the source: *; u = inconclusive; x = not tested or not shown; [ ] = dose if it differs, or a comment. Unless noted, calls come from the whole dose curve; as a rule, active means well fitted rising curve with a large enough effect; inconclusive means small, poorly fitted or top-dose-only effect; inactive means no such curve, though single readings can be large or run the other way. Potency is the fitted concentration of half-maximal effect.

#	mol	Cruzain inh Det	Lassa entry inh	2A StopGo	RE007 growth inh
1	CCOC(=O)c1ccccc1NC(=O)COC(=O)C1CCN(S(=O)(=O)c2ccccc2C(=O)OC)CC1	x	-12%	-12%	-9%
2	COC(=O)c1cccc(CN2C(=O)SC(Nc3ccc(Br)cc3)C2=O)c1 (stereo not drawn)	-7.7%	-26%[46.1 µM]	-10%	x
3	O=C(Cn1c2c(c(-c3ccccc3Cl)cc1=O)CCC2)NCCCN1CCOCC1	x	13%	-7%	-17%
4	COc1ccc(CCNC(=O)C(=O)NCC(c2cccs2)S(=O)(=O)c2ccc(F)cc2)cc1 (stereo not drawn)	-2.7%	u	40µM*	x
5	O=C(Cn1c(-c2ccccc2Cl)nc2ccccc21)Nc1cccc(Cl)c1	-4.7%	21%	-4%	1%
6	CCOc1ccc(NC(=O)CCCn2nc(C)c3c(C)n(-c4ccccc4)nc3c2=O)cc1	x	x	-1%	-7%
7	O=C(Nc1ccccc1-c1nnn(CC(=O)N2CCCc3ccccc32)n1)c1ccco1	0.2%	u	4%	10%
8	Cc1cc(Cc2c(O)[nH]c(=S)[nH]c2=O)ccc1OC(C)C	x	x	3%	5%
9	CC(C)(C)c1ccc(C(=O)Nc2ccc3c(c2)C(=O)NC3=O)cc1	x	x	-22%	5%
10	Cc1nc2cc(C(F)(F)F)ccc2n1C1CCN(Cc2nnnn2Cc2ccc3c(c2)OCO3)CC1	-9.0%	u	u	-8%
11	CCOC(=O)N1CCN(C(=O)COc2ccc3ccccc3c2Br)CC1	x	x	-20%	3%
12	O=C(Cc1sc(-c2ccccc2)nc1-c1ccccc1)Nc1ccc(Cl)cc1	5.6%	3%	-16%	2%
13	Cc1ccc(NC(=O)c2ccc(OC(F)(F)F)cc2)cc1S(=O)(=O)N(C)C	-8.3%	u	32µM*	13%
14	Cc1ccccc1NC(=S)NCc1ccc2c(c1)cc(C)n2C	-4.9%	-28%	14%	-5%
15	Cc1ccc(C2=Nc3ccccc3N(CC(=O)Nc3ccccc3C)C(=O)C2)cc1C	-4.1%	7%[46.1 µM]	31%[activator]	x

#	Cruzain inh noDet	NS1 function inh	MARV entry inh	SARS PLP yeast
1	x	x	15%	-4%
2	0%	x	6%[46.1 µM]	x
3	x	-3%	7%[46.1 µM]	-3%
4	-9%	x	x	x
5	-1%	-1%	12%	4%
6	x	-3%	x	4%
7	u	5%	u	-10%
8	x	14%	x	3%
9	x	-6%	x	-8%
10	u	-48%	u	-10%
11	x	-20%	x	-8%
12	u	-11%	-7%	-3%
13	3%	-1%	u	-21%
14	u	u	-28%	6%
15	1%	x	x	x

Nos. 1 through 2, quoted:
#	mol	Cruzain inh Det	Lassa entry inh	2A StopGo	RE007 growth inh
1	CCOC(=O)c1ccccc1NC(=O)COC(=O)C1CCN(S(=O)(=O)c2ccccc2C(=O)OC)CC1	x	-12%	-12%	-9%
2	COC(=O)c1cccc(CN2C(=O)SC(Nc3ccc(Br)cc3)C2=O)c1 (stereo not drawn)	-7.7%	-26%[46.1 µM]	-10%	x

#	Cruzain inh noDet	NS1 function inh	MARV entry inh	SARS PLP yeast
1	x	x	15%	-4%
2	0%	x	6%[46.1 µM]	x

Next part:
#	mol	Cruzain inh Det	Lassa entry inh	2A StopGo	RE007 growth inh
16	Cc1ccn(S(=O)(=O)c2ccc(C(C)(C)C)cc2)n1	-3.1%	0%	-18%	-6%
17	COc1ccc(Cl)cc1NC(=O)CSc1nnc(-c2ccncc2)n1CC1CCCO1 (stereo not drawn)	4.7%	3%	0%	-1%
18	COc1ccccc1/C=C1/SC(=S)N(C(C)C(=O)NC2C=CS(=O)(=O)C2)C1=O (stereo not drawn)	x	x	u	-12%
19	COc1ccc(-n2c(SCC(=O)Nc3cccc(S(N)(=O)=O)c3)nc3ccccc3c2=O)cc1OC	x	8%	13%	-10%
20	Cc1ccc(S(=O)(=O)NC(N)=NCCc2ccc(Cl)cc2)cc1	-2.9%	6%	-24%	6%
21	Cc1ccc(C(=O)N2NC(c3ccccc3F)C3C(=O)N(c4cccc(C)c4)C(=O)C32)cc1 (stereo not drawn)	-4.7%	18%	-5%	9%
22	CCCCn1c(N)c(N(CCC(C)C)C(=O)C2CSC3(C)CCC(=O)N23)c(=O)[nH]c1=O (stereo not drawn)	x	u	-26%	0%
23	CCc1ccc(S(=O)(=O)N/N=C(/C)c2ccncc2)cc1	x	u	21%	-10%
24	Cc1[nH]n(-c2ccccc2)c(=O)c1N=Nc1c(Cl)cccc1Cl	x	x	10%	-9%
25	O=c1c2ccc(Cl)cc2nc2n1CC/C2=C\c1cccc(O)c1	x	-16%[46.1 µM]	-12%	-3%
26	COc1ccc(S(=O)(=O)N2CCC3(CC2)OCCN3S(=O)(=O)c2ccccc2)cc1OC	x	2%	15%	-4%
27	CC(C)CNC(=O)C(=O)NCC(c1ccc2c(c1)OCO2)N1CCOCC1 (stereo not drawn)	x	3%[46.1 µM]	-19%	-15%
28	CCC(=O)Nc1ccc(Cl)c(NC(=S)NC(=O)c2ccco2)c1	-3.7%	4%	8%	2%
29	COCCn1nnnc1C(c1cc2c(C)cc(C)cc2[nH]c1=O)N1CCCCCC1 (stereo not drawn)	-5.2%	u	x	12%
30	Cc1ccc(NS(=O)(=O)c2cccc(C(=O)O)c2)cc1S(=O)(=O)N1CCCCC1	-0.5%	9%	2%	-12%

#	Cruzain inh noDet	NS1 function inh	MARV entry inh	SARS PLP yeast
16	-5%	-4%	13%	x
17	23%	-8%	19%	0%
18	x	15%	x	-3%
19	x	-1%	-7%[46.1 µM]	0%
20	-3%	-8%	1%	-19%
21	5%	-5%	u	9%
22	x	x	0%	-1%
23	x	2%	15%[46.1 µM]	0%
24	x	3%	x	2%
25	x	-7%	4%[46.1 µM]	-2%
26	x	x	28%	x
27	x	24%	u	24%
28	-4%	7%	32%	-13%
29	18%	6%	-18%	-4%
30	25%	11%	-2%	9%

Gathered by group: those above with an aryl thioether with sulfur outside any ring (2)
#	mol	Cruzain inh Det	Lassa entry inh	2A StopGo	RE007 growth inh
17	COc1ccc(Cl)cc1NC(=O)CSc1nnc(-c2ccncc2)n1CC1CCCO1 (stereo not drawn)	4.7%	3%	0%	-1%
19	COc1ccc(-n2c(SCC(=O)Nc3cccc(S(N)(=O)=O)c3)nc3ccccc3c2=O)cc1OC	x	8%	13%	-10%

#	Cruzain inh noDet	NS1 function inh	MARV entry inh	SARS PLP yeast
17	23%	-8%	19%	0%
19	x	-1%	-7%[46.1 µM]	0%

(continued)
#	mol	Cruzain inh Det	Lassa entry inh	2A StopGo	RE007 growth inh
31	Cc1cccc(NC(=S)NC(=O)c2ccc(Br)o2)c1	x	20%[46.1 µM]	37%[activator]	-7%
32	O=C(NC12CC3CC(CC(C3)C1)C2)c1cncc(O)c1	4.1%	-14%	21%	-17%
33	COc1cc(NC(=O)C/C(C)=N/NC(=O)c2ccccn2)c(OC)cc1Cl	x	u	30%	-4%
34	O=C(NCCCN1CCOCC1)c1cc2nc(-c3ccco3)cc(C(F)(F)F)n2n1	x	13%	-10%	-2%
35	CCOC(=O)CSc1cc(CS(C)(=O)=O)nc(-c2ccccn2)n1	x	-13%[46.1 µM]	-16%	-4%
36	O=C(Cc1ccc(Br)cc1)Nc1ccccc1N1CCCC1	x	x	u	-13%
37	Cc1ccccc1NC(=O)/C=C/c1cccc(C(F)(F)F)c1	-3.8%	-5%	x	-3%
38	CCOC(=O)c1ccccc1NC(=O)c1c2c(nc3ccccc13)C(=O)N(C1CCCCC1)C2	0.1%	6%[46.1 µM]	-13%	x
39	O=C1NC(c2cn(-c3ccccc3)nc2-c2cccs2)C(C(=O)c2cccnc2)C(O)(C(F)(F)F)N1 (stereo not drawn)	-0.1%	-6%	-2%	-25%
40	Cc1ccc(C(=O)NNC(=O)C2CCN(Cc3ccc(Cl)c(Cl)c3)CC2)cc1	-2.3%	-4%	u	-7%
41	c1cn2cc(-c3ccc4c(c3)OCO4)nc2s1	-0.4%	10µM*	-2%	-24%[3.69 µM]
42	CC(C)N(C(=O)[C@H]1C[C@H](CC(=O)NCc2ccco2)C(=O)N2CCc3c([nH]c4cc(-c5ccco5)ccc34)[C@]12C)C(C)C	x	x	32%[activator]	4%
43	CC1CN(C(=O)c2ccncc2)CC(C)O1 (stereo not drawn)	8.2%	15%	10%	17%
44	COc1ccc(CN2CCCC2C(=O)Nc2ccc(OC)c(OC)c2)cc1OC (stereo not drawn)	5.8%	-26%	-16%	10%
45	NC(=O)C1CCN(C(=O)CCCCCn2c(=O)[nH]c3ccsc3c2=O)CC1	0.1%	0%	12%	1%
46	CCOc1cccc(=NC2CCCCC2)c2c(C)n(C)c(C)c12	x	-25%	11µM*	-12%
47	NS(=O)(=O)c1cccc(NC(=O)COC(=O)CCc2ccccc2)c1	x	-9%	-4%	11%
48	Cc1cccc(C)c1OCc1cc(C(=O)NCC2CCCCC2)no1	x	x	-7%	3%

#	Cruzain inh noDet	NS1 function inh	MARV entry inh	SARS PLP yeast
31	x	7%	0%[46.1 µM]	1%
32	11%	-1%	0%	3%
33	x	-3%	u	-4%
34	x	1%	18%[46.1 µM]	-1%
35	x	x	12%[46.1 µM]	7%
36	x	-46%	x	-6%
37	6%	-47%	27%	-16%
38	-6%	x	x	x
39	-8%	-51%	26%	3%
40	0%	7%	3%[46.1 µM]	0%
41	-19%	-138%	u	-27%
42	x	x	-9%	-3%
43	4%	-2%	0%	4%
44	12%	-1%	u	4%
45	-10%	-6%	0%	-22%
46	x	0%	u	0%
47	x	6%	3%[46.1 µM]	0%
48	x	3%	x	8%

Rows are unselected (roughly 4.6% active in at least one column).
